Mtb hypoxia rep = inhibitors of hypoxia-regulated fluorescent reporter in Mycobacterium tuberculosis; 300,000 tested, 0.1% active; fluorescence inhibition, % (test concentration not listed); M. tuberculosis hypoxia-regulated fluorescent reporter, fluorescence; AID 1159583;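 active = 35 to 45% if threefold the growth effect, above 45% if 1.5-fold the growth effect; inactive = the rest, general growth blockers included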;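 also: wells of about 50 µL received 100 nL stock; 0% = vehicle wells and 100% = reference inhibitor wells; whole bacteria with a GFP reporter of the hypoxia response; strong numbers were not always called active; many hits fall short of the cut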
RN4220 kill = S. aureus RN4220 growth inhibition; 330,000 tested, 0.33% active; OD600, 16 h; inhibition, % (test concentration not listed);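 active = z-score of -3 or lower and OD600 up to 0.18 on both plates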;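 also: plate controls were untreated cells for no effect and reference antibiotic for full effect; stock transfer was 100 nL into about 80 µL; one replicate is shown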
BJeLR lethal = BJeLR cell viability loss; BJeLR (HRASV12) viability, CellTiter-Glo ATP luminescence, 48 h; reference of the scale not given here; inhibition, % (concentration not given with the values); 300,000 tested, 0.17% active; AID 1554;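 active = replicate mean above 50%; inconclusive = above 50% but judged a plate artefact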;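 also: 50 nL library stock added to about 25 µL; numbers are from one replicate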
Bead autofluor = counter-screen for toxin protease inhibitors: compound fluorescence; compound autofluorescence counterscreen, microsphere flow cytometry; stronger effect = higher value; fluorescence intensity (concentration not given with the values); 360,000 tested, 3.1% active; AID 624483;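 active = at least 3 SD above the mean of all compounds, about 16000 in these data; inconclusive = too few beads counted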;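 also: 100 nL of 1 mM stock went into each well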
ugtP null kill = kills S. aureus RN4220 lacking UgtP. S. aureus RN4220 ugtP deletion, OD600 growth, 16 h; some inactives read as strong as hits. growth inhibition, % (test concentration not listed). 330,000 tested, 0.54% active;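 active = z-score under -3 and OD600 up to 0.15 on both plates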;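 also: plate controls were untreated wells for no effect and antibiotic for full effect; wells of about 80 µL received 100 nL stock; the first replicate is given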
PrP UTR inh = inhibition of PrP 5' UTR reporter expression; cell-based PrP 5' UTR mRNA reporter, plate reader; inhibition, % (test concentration not listed); 340,000 tested, 0.35% active; AID 488862;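 active = every replicate at 50% or more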;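 also: 0 = median of the neutral control wells; tested in H4 reporter cells; numbers are from one replicate; inactives centre near -14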
Mtb hypoxia rep growth = recorded beside Mtb hypoxia rep, whose call it bears; growth inhibition, %; measured here: M. tuberculosis growth (absorbance);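 0% = vehicle and 100% = reference antibiotic; read after six days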
* marks the source's active call; other numbers are inactive results; ? = inconclusive; . = not tested or not shown; & = joins results of further samples.

Abbreviations – A = Mtb hypoxia rep; B = Mtb hypoxia rep growth; C = RN4220 kill; D = BJeLR lethal; E = Bead autofluor; F = ugtP null kill; G = PrP UTR inh
#1 CCC(=O)Nc1ccc(C(=O)N2CCN(C(=O)c3ccco3)CC2)cc1
  A: 8 | B: -9 | C: 4.8 | D: 2 | E: 2056 | F: 0 | G: -3
#2 CC(C)CCNC(=O)CCS(=O)(=O)c1cccc2nonc12
  A: 0 | B: 7 | C: -0.3 | D: -11 | E: 4573 | F: 0 | G: -45
#3 O=S(=O)(NCCSc1ccccc1)c1ccc(F)cc1
  A: 3 | B: 4 | C: 0.0 | D: -1 | E: 3856 | F: 2 | G: 1
#4 Cc1cccc(C2NC(c3cccc(C)c3)C([N+](=O)[O-])C(C)(C)C2[N+](=O)[O-])c1 (stereo not given)
  A: 4 | B: 8 | C: 1.8 | D: -22 | E: 2453 | F: -21 | G: -15
#5 CN(C)CCn1c(=S)[nH]c2ccccc2c1=O
  A: . | B: . | C: -1.4 | D: 6 | E: 2514 | F: -2 | G: -17
#6 O=C1NC[C@H](CC2CCCCC2)N(CCc2cccc(F)c2)C1=O
  A: . | B: . | C: . | D: -5 | E: 3310 | F: . | G: -6
#7 COc1cccc(CN(C)CC(=O)Nc2ccccc2C(=O)NC2CC2)c1
  A: 17 | B: 6 | C: 3.3 | D: . | E: 3535 | F: 3 | G: -17
#8 COc1ccc(Cl)cc1NC(=O)c1nnn(CC(=O)Nc2ccc(C)c(C)c2)c1N
  A: 0 | B: -7 | C: 4.2 | D: -4 | E: 5473 | F: 2 | G: -22
#9 O=C(CCc1ccccc1)N1N=C(c2ccncc2)CC1(O)C(F)(F)F (stereo not given)
  A: -3 | B: 3 | C: 6.1 | D: 7 | E: 4269 | F: -4 | G: -4
#10 O=C(COc1ccc(Cl)cc1)NCc1nnc(SCC(=O)NC2CCCC2)o1
  A: -6 | B: 8 | C: -0.5 | D: 9 | E: 3597 | F: -3 | G: -1

Random excerpt: six compounds from above.
Abbreviations – A = Mtb hypoxia rep; B = Mtb hypoxia rep growth; C = RN4220 kill; D = BJeLR lethal; E = Bead autofluor; F = ugtP null kill; G = PrP UTR inh
#3 O=S(=O)(NCCSc1ccccc1)c1ccc(F)cc1
  A: 3 | B: 4 | C: 0.0 | D: -1 | E: 3856 | F: 2 | G: 1
#7 COc1cccc(CN(C)CC(=O)Nc2ccccc2C(=O)NC2CC2)c1
  A: 17 | B: 6 | C: 3.3 | D: . | E: 3535 | F: 3 | G: -17
#6 O=C1NC[C@H](CC2CCCCC2)N(CCc2cccc(F)c2)C1=O
  A: . | B: . | C: . | D: -5 | E: 3310 | F: . | G: -6
#10 O=C(COc1ccc(Cl)cc1)NCc1nnc(SCC(=O)NC2CCCC2)o1
  A: -6 | B: 8 | C: -0.5 | D: 9 | E: 3597 | F: -3 | G: -1
#8 COc1ccc(Cl)cc1NC(=O)c1nnn(CC(=O)Nc2ccc(C)c(C)c2)c1N
  A: 0 | B: -7 | C: 4.2 | D: -4 | E: 5473 | F: 2 | G: -22
#9 O=C(CCc1ccccc1)N1N=C(c2ccncc2)CC1(O)C(F)(F)F (stereo not given)
  A: -3 | B: 3 | C: 6.1 | D: 7 | E: 4269 | F: -4 | G: -4

Other records follow.
Abbreviations – A = Mtb hypoxia rep; B = Mtb hypoxia rep growth; C = RN4220 kill; D = BJeLR lethal; E = Bead autofluor; F = ugtP null kill; G = PrP UTR inh
#11 C#CCOCCOCCOCCNc1nc(N2CCN(C(=O)[C@H](CCC(=O)O)n3cc(C(N)CC(C)C)nn3)CC2)nc(N2CCN(C(=O)[C@H](Cc3cc4ccccc4[nH]3)n3cc(C(N)CC(C)C)nn3)CC2)n1 (stereo not given in full)
  A: . | B: . | C: . | D: 0 | E: 3881 | F: . | G: -10
#12 CC(C)NC(=O)CSc1nc2[nH]ncc2c(=O)[nH]1
  A: 2 | B: 8 | C: 5.3 | D: 8 | E: 2135 | F: -4 | G: -12
#13 CCOC(=O)C1=C(c2ccccc2)NC(=O)NC1c1cc(OC)c(OC)cc1OC (stereo not given)
  A: -2 | B: -7 | C: 2.2 | D: 6 | E: 2966 | F: 3 | G: 12
#14 O=C(c1ccc(NS(=O)(=O)c2ccccc2)cc1)N1CCOCC1
  A: -4 | B: -7 | C: 1.2 | D: 7 | E: 4274 | F: 1 | G: 0
#15 COc1cccc(CC(=O)OCC(=O)N(C)CC(=O)Nc2ccc(F)cc2)c1
  A: -13 | B: -7 | C: -4.6 | D: 2 | E: 4805 | F: -7 | G: 15
#16 CCCCCNC(=O)c1ccc2c(=O)n(CC3CCCO3)c(=S)[nH]c2c1 (stereo not given)
  A: 11 | B: 6 | C: 10 | D: 11 | E: 4387 | F: -68 | G: -24
#17 O=C(CSCCO)Nc1ccccc1
  A: 8 | B: 8 | C: 4.3 | D: -3 | E: 9041 | F: 7 | G: -17
#18 Cn1c(=O)c2c(nc(N/N=C/c3cccs3)n2Cc2ccc(Br)cc2)n(C)c1=O
  A: . | B: . | C: . | D: -1 | E: 2407 | F: . | G: 3
#19 C[C@H](NC(=O)c1nc[nH]c1C(=O)N1CCNCC1)C(=O)OC(C)(C)C
  A: 7 | B: 15 | C: -8.4 | D: -1 | E: 2970 | F: 1 | G: -14
#20 CCOc1ccc(CCN2C(=O)c3cccnc3C2=O)cc1OCC
  A: 3 | B: -1 | C: 1.7 | D: -4 | E: 2501 | F: 0 | G: 8
#21 Cc1cc(C(=O)Nc2ccc(S(=O)(=O)Nc3onc(C)c3C)cc2)c(C)o1
  A: 0 | B: 7 | C: -0.2 | D: 2 | E: 10628 | F: 0 | G: -15
#22 CCN(CC(=O)Nc1ccc(NC(C)=O)cc1)C(=O)C1CCCC1
  A: -2 | B: -4 | C: 1.5 | D: . | E: 3303 | F: 10 | G: -26
#23 CC(OC(=O)c1cc(=O)[nH]c2ccccc12)C(=O)Nc1ccc(Cl)cn1 (stereo not given)
  A: 2 | B: 1 | C: 2.2 | D: . | E: 8245 | F: -2 | G: -4
#24 CC1=NN(C(=O)c2ccccc2Cl)C(O)(c2ccccc2)C1 (stereo not given)
  A: -7 | B: 0 | C: 4.1 | D: -9 | E: 2822 | F: 8 | G: -5
#25 FC(F)(F)c1cccc(NC(=S)N2CCN(c3ccccc3)CC2)c1
  A: 5 | B: 6 | C: 3.7 | D: 4 | E: 2089 | F: 12 | G: -1
#26 CCC(C(=O)n1cccc1C#N)c1ccccc1C (stereo not given)
  A: 12 | B: 10 | C: 8.5 | D: . | E: 3642 | F: 7 | G: -25
#27 CCNc1nc2ccccc2[nH]1
  A: . | B: . | C: 2.5 | D: 6 | E: 4336 | F: 7 | G: -18
#28 COc1cc(C(=O)Oc2ccc3c(c2)OCC3=O)cc(OC)c1OC
  A: 6 | B: 11 | C: -2.6 | D: 7 | E: 4422 | F: 0 | G: -1
#29 CN(C)C(=S)SCC(=O)NCc1ccc(F)cc1
  A: -3 | B: 2 | C: -1.4 | D: -11 | E: 3390 | F: -5 | G: -27
#30 CCCCc1cc(=O)oc2cc(C)cc(OCC(=O)N3CCC(C(=O)O)CC3)c12
  A: . | B: . | C: 0.3 | D: -8 | E: 4275 | F: 8 | G: -10
#31 O=Cc1ccc(-c2ccc(Cl)cc2Cl)[nH]1
  A: 18 | B: 2 | C: -6.7 | D: 9 | E: 6557 | F: -9 | G: -31
#32 CCOC(=O)c1ccc(NC(=O)c2ccccc2[N+](=O)[O-])cc1
  A: 17 | B: 7 | C: 5.6 | D: -5 | E: 2156 | F: 11 | G: -37
#33 Cc1n[nH]c(=O)c2c(NC(=O)CSc3nc4ccccc4c(=O)n3C(C)C)oc(C)c12
  A: . | B: . | C: . | D: -2 | E: 5899 | F: . | G: 1
#34 O=c1c(Cc2ccc(F)cc2)c(O)ccn1Cc1ccc(F)cc1
  A: -15 | B: -7 | C: 5.1 | D: -2 | E: 3307 | F: -3 | G: -22
#35 COc1ccc(-c2csc(NC(=O)CSc3ncn[nH]3)n2)cc1OC
  A: -1 | B: -4 | C: 11 | D: -7 | E: 3268 | F: 5 | G: -75
#36 CN(CC(=O)Nc1cccc(F)c1)C(=O)c1cccnc1Sc1ccc(Cl)cc1
  A: -4 | B: -1 | C: -0.6 | D: -2 | E: 5590 | F: 2 | G: -9
#37 O=C(NCCS(=O)(=O)N1CCN(c2cccc(Cl)c2)CC1)c1ccc2c(c1)OCO2
  A: 4 | B: 2 | C: 4.1 | D: 3 | E: ? | F: -1 | G: -12
#38 Cc1ccc(C(=O)Oc2cc(C)[nH]c(=O)c2[N+](=O)[O-])cc1
  A: 16 | B: 9 | C: 3.9 | D: -6 | E: 2462 | F: 5 | G: -10
#39 CC(C)(CO)CNC(=O)CC1C(=O)NCCN1CC(c1ccccc1)c1ccccc1 (stereo not given)
  A: 1 | B: 9 | C: 2.3 | D: 3 | E: 6146 | F: 12 | G: -11
#40 CCc1ccc(N(C(=O)c2snc(C(N)=O)c2N)C(C(=O)NC2CCCC2)c2ccco2)cc1 (stereo not given)
  A: 6 | B: 4 | C: -0.6 | D: -12 | E: 3188 | F: 14 | G: -23
#41 COc1ccc(/C=C(\NC(=O)c2ccccc2)C(=O)NCCN2CCOCC2)cc1OC
  A: 7 | B: -10 | C: 0.4 | D: 3 | E: 3869 | F: 3 | G: -22
#42 CCOc1ccccc1N(C(=O)c1snc(C(N)=O)c1N)C(C(=O)NC1CCCC1)c1cccs1 (stereo not given)
  A: 0 | B: 10 | C: 2.3 | D: -18 | E: 4999 | F: 23 | G: -1
#43 CCOc1ccc(NC(=O)Cn2nnc(C(=O)NCc3ccc4c(c3)OCO4)c2N)cc1
  A: -2 | B: -6 | C: 3.7 | D: -3 | E: 5400 | F: 0 | G: -16
#44 O=C(CNCc1cccs1)Nc1ccc(S(=O)(=O)N2CCCCC2)cc1
  A: 1 | B: 7 | C: 6.5 | D: -4 | E: 4740 | F: 0 | G: 5
#45 O=C(CN(Cc1ccccc1)C(=O)CNS(=O)(=O)c1ccc(F)cc1)NCC1CCCO1 (stereo not given)
  A: 14 | B: 2 | C: 3.1 | D: -8 | E: 3864 | F: 6 | G: -17
#46 Cc1cccc(C(=O)NC(=S)Nc2cccc3nc(C)ccc23)c1
  A: 9 | B: 2 | C: 0.8 | D: 6 | E: 5727 | F: 17 | G: -15
#47 COC(=O)CCCC(NC(=S)N1CC2C[C@@H](C1)Cn1c2cccc1=O)C(=O)OC (stereo not given in full)
  A: 4 | B: 2 | C: 3.1 | D: 8 | E: 4349 | F: 13 | G: -7
#48 CN(Cc1cccnc1)C(=O)CNC(=O)c1ccc(Cl)cc1Cl
  A: 2 | B: 10 | C: -1.7 | D: 8 | E: 4503 | F: 6 | G: -1
#49 Cn1c(O)c(C=Nc2ccccc2Sc2ccccc2)c(=O)n(C)c1=O
  A: 1 | B: 2 | C: 5.0 | D: 4 | E: 2437 | F: 8 | G: -14
#50 Cc1ccc(C)n1-c1ccc(-c2ccn[nH]2)cc1
  A: 13 | B: 0 | C: 2.2 | D: 1 | E: 6867 | F: 4 | G: -42
#51 CCOC(=O)c1c(N=CN(C)C)sc(C)c1C
  A: 9 | B: 12 | C: 7.9 | D: . | E: . | F: 7 | G: .
#52 C=CCn1c(O)c(C(C)=NCc2ccc3c(c2)OCO3)c(=O)[nH]c1=O
  A: 12 | B: -1 | C: 3.1 | D: 0 | E: 4330 | F: 2 | G: -24
#53 O=C(NN=Cc1ccc(N2CCOCC2)o1)c1cccc([N+](=O)[O-])c1
  A: 15 | B: 3 | C: 0.5 | D: . | E: . | F: 6 | G: .
#54 COc1cc(C(=O)Nc2ccc(C)cn2)c([N+](=O)[O-])cc1OC
  A: 11 | B: 5 | C: 8.9 | D: -1 | E: 3032 | F: 3 | G: -36
#55 CCOC(=O)c1cn[nH]c1C(F)(F)F
  A: -5 | B: -7 | C: 2.6 | D: -2 | E: 5604 | F: 3 | G: -23
#56 CC(=O)Nc1ccc(S(=O)(=O)NNC(=O)C2CCCCC2)cc1
  A: 8 | B: 5 | C: 1.9 | D: -2 | E: 4846 | F: 8 | G: -9
#57 Cc1cc(C)[n+]2n1C(=O)C(c1ccccc1)=C2[O-]
  A: 3&17 | B: 8&2 | C: 1.7&6.1 | D: -4&5 | E: 4555&2165 | F: -10&4 | G: -31&-26
#58 CCCCNC(=O)Nc1c(C(=O)OC)[nH]c2ccc(C)cc12
  A: . | B: . | C: 0.3 | D: 7 | E: 2293 | F: -6 | G: 12

Source: PubChem
